TRPML1 inh: qHTS for Inhibitors of the Human Mucolipin Transient Receptor Potential 1 (TRPML1) | Mucolipin-1 (Homo sapiens), Q9GZU1 | TRPML1-inducible cells, Ca2+ dye fluorescence, FDSS; hits give low values; inhibition of EC80 agonist-evoked calcium signal | activity change, negative = inhibition, % (concentration not given with the values) | 390,000 compounds, 0.02% hits | AID 624415, 2012; in the data active means activity change below about -50%; inconclusive means about -30% to -50%; inactive means above about -30%;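 further: stimulus is agonist 54-4 at its EC80 concentration; on the % scale 0 is the no-effect control and ±100 the full control effect; the text of the record puts the active cut at -80%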
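TRPML1-DL cells, Tet-induced overnight (~16 h, 37 °C) at 1,500 cells/well, were loaded with Ca8 no-wash dye plus quencher for 45-90 min at room temperature. Compounds were pinned during FDSS kinetic reading; agonist 54-4 at EC80 (4 uM final) then added.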
TRPML1 ag: qHTS for Agonists of the Human Mucolipin Transient Receptor Potential 1 (TRPML1). Mucolipin-1 (Homo sapiens), Q9GZU1. TRPML1-expressing cells, Ca2+ dye fluorescence, FDSS; host cell line not named in the record; reference of the full effect not given here. activation, % (no concentration beside the values). 410,000 compounds, 0.12% hits. AID 624414, 2012; in the data active = activation above about 50%; inconclusive = about 30% to 50%; inactive = below about 30%; further: 0% is about no effect; the text of the record puts the active cut at 80%
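Tet-induced TRPML1-DL cells, 1,500 per well, cultured overnight, were loaded with a no-wash Ca2+ dye for 45–90 min. Calcium fluorescence was recorded on the FDSS for 110 s after compound addition, before the EC80 agonist (4 uM 54-4) was added.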
TRPV1 potentiator: HTS Assay for Compounds that Act as Potentiators of the Vanilloid Receptor 1; Transient receptor potential cation channel subfamily V member 1 (Homo sapiens), Q8NER1; TRPV1-expressing cells, Fluo-8 calcium influx, capsaicin EC20 potentiation; host cell line not named in the record; control for the full effect not named in the record; potentiation, % at 8.33 µM; 320,000 compounds, 0.02% hits; active means potentiation above 80%; inconclusive means 30% to 80%; inactive means below 30%; further: 0% is about no effect
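Cells expressing TRPV1 were dye-loaded with Fluo-8 and read kinetically: 10 s baseline, 3 min after compound (agonist portion), then 2 min after EC20 capsaicin (allosteric enhancer portion). Calcium-bound dye fluorescence at 480/520 nm.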
D2 potentiator: Beta-Arrestin HTS for Positive Allosteric Modulators of the Human D2 Dopamine Receptor: Potentiators; D(2) dopamine receptor (Homo sapiens), P14416; 360,000 compounds, 0.23% hits; potentiation, % (no concentration beside the values); DiscoveRx D2 beta-arrestin cells, luminescence, 90 min; 100% = 57 uM dopamine signal; AID 624464, 2012; active = potentiation of 50% or more; inconclusive = 30% to 50%; inactive = 30% or less;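 further: compound concentration not given in the record; tested on top of an EC20 dose of dopamine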
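D2 cells co-treated with compound plus 50 nM dopamine (EC20) for 90 min at 37 deg C to detect potentiation. Beta-arrestin recruitment was read as enzyme-fragment luminescence after 1 h at ambient temperature. Full response was set by 57 uM dopamine.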
CtBP-E1A blk: qHTS Assay for Inhibitors of the CtBP/E1A Interaction; AlphaScreen GST-E1A/His-CtBP binding, 1536-well; hits give low values; control for the full effect not named in the record; activity change, % (test concentration not listed); 340,000 compounds, 0.49% hits; in the data active means activity change below about -65%; inconclusive means about -30% to -65%; inactive means above about -30%; further: on the % scale 0 is the no-effect control and ±100 the full control effect
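GST-E1A and His-tagged CtBP (125 nM each as 5X stock) were preincubated with pin-transferred compound for 2 h at 37 °C in the dark, then glutathione donor and nickel acceptor beads were added for 1 h before AlphaScreen reading.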
Six1-Eya2 blk: qHTS Assay for Inhibitors of the Six1/Eya2 Interaction | Homeobox protein SIX1 (Homo sapiens) + Protein phosphatase EYA2 (Homo sapiens), … | AlphaScreen GST-Six1/His-Eya2 binding, biochemical; hits give low values; control for the full effect not named in the record | activity change, % (test concentration not listed) | 360,000 compounds, 0.56% hits | AID 651725, 2012; in the data active = activity change below about -65%; inconclusive = about -30% to -65%; inactive = above about -30%; further: on the % scale 0 is the no-effect control and ±100 the full control effect
Target sequence (O00167 whole entry, looked up): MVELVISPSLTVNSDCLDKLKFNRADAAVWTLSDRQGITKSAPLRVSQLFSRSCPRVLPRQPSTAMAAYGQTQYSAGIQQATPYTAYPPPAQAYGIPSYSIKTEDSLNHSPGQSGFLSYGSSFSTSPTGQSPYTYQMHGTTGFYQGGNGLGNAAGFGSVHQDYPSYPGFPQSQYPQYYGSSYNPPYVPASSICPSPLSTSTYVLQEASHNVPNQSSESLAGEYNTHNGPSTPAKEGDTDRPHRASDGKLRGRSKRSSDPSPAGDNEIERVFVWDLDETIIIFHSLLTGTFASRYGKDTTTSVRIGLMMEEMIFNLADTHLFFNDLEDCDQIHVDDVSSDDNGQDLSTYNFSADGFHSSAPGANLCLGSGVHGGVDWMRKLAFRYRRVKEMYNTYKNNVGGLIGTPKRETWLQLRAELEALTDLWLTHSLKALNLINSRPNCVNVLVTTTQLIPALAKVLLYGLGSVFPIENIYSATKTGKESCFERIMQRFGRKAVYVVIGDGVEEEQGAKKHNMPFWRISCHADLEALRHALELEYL
Target sequence (Q15475 whole entry, looked up): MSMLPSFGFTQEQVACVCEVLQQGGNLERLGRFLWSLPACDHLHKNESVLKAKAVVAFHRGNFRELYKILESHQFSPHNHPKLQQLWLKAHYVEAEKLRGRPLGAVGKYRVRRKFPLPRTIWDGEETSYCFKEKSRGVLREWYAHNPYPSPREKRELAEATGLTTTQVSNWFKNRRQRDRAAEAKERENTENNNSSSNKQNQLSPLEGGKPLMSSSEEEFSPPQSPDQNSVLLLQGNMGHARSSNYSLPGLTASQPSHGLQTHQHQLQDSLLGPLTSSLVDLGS
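AlphaScreen with GST-Six1 and His-Eya2 (5X mix: 250 nM and 500 nM), glutathione donor and nickel acceptor beads; buffer 50 mM Tris pH 8.0, 300 mM NaCl, 1 mM TCEP; 1 h at 37 C in the dark.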
* = called active by the depositor; ? = inconclusive; / = not tested or not shown.

SMILES | TRPML1 inh | TRPML1 ag | TRPV1 potentiator | D2 potentiator | CtBP-E1A blk | Six1-Eya2 blk
O=C1N/C(=N/S(=O)(=O)c2ccccc2)S/C1=C/c1cccnc1 | -1 | -0.2 | 1 | -7 | -5 | -3
COC(=O)CCCCC1SCC(NC(=O)c2ccccc2)C1=O (stereo not drawn) | 1 | 0.3 | -2 | -3 | 14 | 4
C=CCn1c(O)c(N=NC(=S)Nc2ccc(OC)c(Cl)c2)c2ccccc21 | -10 | 0.6 | -20 | 20 | 1 | ?
CCc1nc(NCC2CCCN2CC)c2nnn(Cc3ccccc3F)c2n1 (stereo not drawn) | -12 | 1.3 | 6 | -26 | -3 | -4
COCCOC(=O)c1cc(C(=O)c2cc(Cl)ccc2O)coc1=N | 14 | 0.4 | -5 | 0 | -3 | -1
COc1ccc(CCNC(=O)CCOc2ccc(C)cc2)cc1OC | 2 | -0.2 | -37 | -3 | 1 | 2
COCCCNC(=O)c1cccc2c(=O)c(C)c(-c3ccccc3)oc12 | -11 | 2.4 | -16 | -8 | -4 | 4
CCOCCCNC(=O)c1cc2c(=O)n3cccc(C)c3nc2n1C | 0 | -0.4 | -2 | -2 | 0 | -3
COc1ccc(C(CNC(=O)COc2ccccc2)N2CCCCC2)cc1 (stereo not drawn) | 9 | -0.7 | -7 | -5 | 10 | 0
Cc1ccc(S(=O)(=O)N2C(=O)[C@@H]3Cc4ccccc4CN3C2=O)cc1 | -26 | 0.0 | -2 | -2 | -4 | -4
COc1ccc2sc(N(CCN(C)C)C(=O)c3cc(Cl)sc3Cl)nc2c1 | -11 | -0.3 | 2 | -12 | 2 | -9
Cc1cc(C)nc(NCCCc2ccccc2)n1 | 29 | 0.7 | -9 | -3 | 10 | 7
CCc1nn(CCCC(=O)N2CCc3ccccc3C2)c(=O)c2cc3occc3n12 | -6 | 2.5 | 3 | -4 | 6 | -3
Cc1ccccc1NC(=O)CSc1nc(O)cc(=O)n1C | 12 | -0.9 | -6 | -3 | 11 | -11
O=[N+]([O-])c1cnc2ccccn12 | 20 | -0.4 | -21 | -17 | / | 7
COc1ccc(NC(=O)C(c2cc3c(cc2[N+](=O)[O-])OCO3)N(C)Cc2ccccc2)cc1 (stereo not drawn) | 21 | -1.1 | -1 | -4 | -9 | -30
COc1ccc(N=C2SC(C(=O)N3CCN(c4ccccc4)CC3)CC(=O)N2C)cc1 (stereo not drawn) | 20 | 0.2 | -3 | 1 | -3 | -8
COc1ccc(CNC(=O)Cc2ccc(-c3ccccc3)cc2)cc1OC | 20 | 1.9 | 0 | 2 | 3 | -2
CC(=O)c1ccc(N=C2NC(=O)C(CO)(CO)S2)cc1 | / | / | -6 | -7 | -2 | -10
COC(=O)c1coc(-c2ccc(C)cc2)c1C(=O)OC | 59 | -0.4 | -20 | 6 | 21 | 10
CCOC(=O)C1=CN(CC)S(=O)(=O)NC1c1ccc2ccccc2c1 (stereo not drawn) | -11 | 0.0 | / | / | 10 | 5
CCOCCCn1c(=S)[nH]c2cc(C(=O)NCc3ccc(F)cc3)ccc2c1=O | 9 | -1.4 | -15 | -7 | -6 | 2
O=C(O)CN1CCN(Cc2ccc(F)cc2)C1=O | -1 | 1.4 | 12 | -1 | 2 | 10
O=C(CNS(=O)(=O)c1ccc(Cl)cc1)NNC(=O)c1cccnc1 | 13 | 0.3 | -1 | -6 | 3 | 7
O=C(NCc1cccs1)C1CC(=O)N(c2ccccc2)C1 (stereo not drawn) | 2 | -1.0 | 7 | -6 | 4 | 3
SMILES | TRPML1 inh | TRPML1 ag | TRPV1 potentiator | D2 potentiator | CtBP-E1A blk | Six1-Eya2 blk
CCc1c(C(=O)N2CCN(c3ccccc3F)CC2)[nH]c(C)c1C(C)=O | 8 | 1.9 | -15 | 6 | 5 | 11
CCN(Cc1ccncc1)C(=O)CCc1ccccc1 | 0 | -0.4 | 8 | -3 | 0 | 0
CCc1sc(NC(=O)C(C)C)nc1-c1ccccc1 | 9 | -0.4 | 4 | -4 | 2 | 0
CCc1ccc(CC)c(S(=O)(=O)Nc2ccc(O)c(C(=O)O)c2)c1 | -4 | 0.4 | -3 | -3 | 5 | 2
CCOC(=O)c1sc(-c2ccc(C)cc2)c(C#N)c1C | -17 | 0.5 | 21 | -10 | 0 | 3
O=C(CCn1c(=O)c2cccn2c2cccnc21)NCc1cccc(Cl)c1 | -4 | -0.8 | 4 | -7 | 10 | 1
Cc1ccc(C)c(NC(=O)c2ccccc2O)c1 | 7 | -0.9 | 16 | -33 | -8 | -15
Clc1cccc(-c2ccc(CNCc3ccccn3)o2)c1 | / | / | 9 | -75 | / | -16
CC(=O)NCCC(=O)Nc1cc(S(=O)(=O)N2CCCCC2)ccc1N1CCCCC1 | -13 | -1.4 | -13 | -5 | / | -2
Cc1nc(N2CCCCC2)c2c(-c3cccs3)csc2n1 | 53 | -1.2 | 30 | -23 | -1 | -6
CC1CN(C(=O)c2cc3c(s2)CCC3)CC(C)O1 (stereo not drawn) | 10 | -0.1 | -1 | -4 | 7 | 3
O=C(O)/C=C/C(=O)Nc1ccccc1SC(F)(F)C(F)(F)C(F)(F)F | -15 | 0.1 | 2 | -6 | 14 | 10
Cc1cccc(OCC(=O)Nc2ccccc2N2CCCCC2)c1 | 12 | -0.2 | 4 | -8 | 2 | 7
CC1CCc2sc(C(=O)NCCCn3ccnc3)cc2C1 (stereo not drawn) | -12 | -0.6 | -5 | -18 | -10 | -7
Cc1ccc2cc(CN(C(=O)c3ccncc3)C(C)C)c(=O)[nH]c2c1 | -15 | -0.3 | 2 | -1 | -1 | 8
CCOc1cc(N2CCCC2)ccc1[N+](=O)[O-] | 23 | 5.1 | -3 | -13 | -10 | -9
CN(Cc1ccccc1)c1nc2c(c(=O)[nH]c(=O)n2C)n1CCCSc1ncccn1 | 9 | 0.4 | -7 | -12 | -8 | -3
C[C@@H]1CN([C@@H](C)CO)C(=O)c2cc(Br)cnc2O[C@H]1CN(C)Cc1ccc(-c2ccccc2)cc1 | 0 | -0.2 | / | -9 | -2 | -19
CCN1C(=O)/C(=C\C=C\c2ccccc2[N+](=O)[O-])SC1=S | -10 | -0.7 | 30 | -2 | -2 | -21
Nc1[nH]c(N=NC(=O)c2ccccc2O)c2ccccc12 | 1 | -0.8 | 2 | 11 | ? | -78*
CS(=O)(=O)c1ccc(Cl)c(NC(=O)COC(=O)c2ccc(-n3cnnn3)cc2)c1 | -2 | -0.6 | 1 | 20 | -1 | 2
Cn1c(-c2ccsc2)c(-c2cccs2)c2cc(-c3ccc4[nH]ccc4c3)ccc21 | 0 | -0.3 | -2 | -12 | -14 | -20
COc1cccc(C2c3c(-c4ccccc4)n[nH]c3C(=O)N2c2ccc(C(=O)O)cc2)c1 (stereo not drawn) | -6 | 0.2 | 0 | -1 | -5 | 2
C=CCc1cccc2cc(C(=O)Nc3ccc(CC(=O)O)cc3)c(=O)oc12 | 12 | -0.5 | 1 | -3 | / | -5
Cc1onc(-c2c(Cl)cccc2Cl)c1C(=O)NNc1ccccc1 | 21 | -0.6 | 6 | -8 | -25 | -1

Just TRPML1 inh, for some of the entries so far:
Molecule,TRPML1 inh
CC1CCc2sc(C(=O)NCCCn3ccnc3)cc2C1 (stereo not drawn),-12
Cc1ccc2cc(CN(C(=O)c3ccncc3)C(C)C)c(=O)[nH]c2c1,-15
CCOc1cc(N2CCCC2)ccc1[N+](=O)[O-],23
CN(Cc1ccccc1)c1nc2c(c(=O)[nH]c(=O)n2C)n1CCCSc1ncccn1,9

A draw from above in order of SMILES length, ascending:
SMILES | TRPML1 inh | TRPML1 ag | TRPV1 potentiator | D2 potentiator | CtBP-E1A blk | Six1-Eya2 blk
Cc1ccc(C)c(NC(=O)c2ccccc2O)c1 | 7 | -0.9 | 16 | -33 | -8 | -15
CCOC(=O)c1sc(-c2ccc(C)cc2)c(C#N)c1C | -17 | 0.5 | 21 | -10 | 0 | 3
O=C(CCn1c(=O)c2cccn2c2cccnc21)NCc1cccc(Cl)c1 | -4 | -0.8 | 4 | -7 | 10 | 1

Continuation:
SMILES | TRPML1 inh | TRPML1 ag | TRPV1 potentiator | D2 potentiator | CtBP-E1A blk | Six1-Eya2 blk
CC(=O)Nc1nc2ccc(Br)cc2s1 | 8 | 1.1 | -8 | -4 | -1 | 4
Cc1cccc(N(NC(=O)C(C)(C)O)C(=O)c2ccccc2)c1 | 0 | 1.0 | 2 | -6 | 3 | 12
CCC1(C)NC(=O)N(/N=C/c2cc(OC)c(O)c(OC)c2)C1=O (stereo not drawn) | -15 | -1.1 | -4 | -8 | -3 | 2
CCOc1cc(Br)c(/C=C2/C(=O)N(C)C(=S)N2CC(=O)OC)cc1OC | 3 | 0.9 | 6 | -8 | 6 | 15
CC(OC(=O)C1=COCCO1)C(=O)c1ccc(C(C)(C)C)cc1 (stereo not drawn) | -9 | 2.0 | -1 | -14 | 9 | 24
Cc1sc2nc(C(C)Nc3ccccc3N3CCOCC3)[nH]c(=O)c2c1C (stereo not drawn) | 24 | -0.7 | 6 | 2 | -8 | -12
O=C(COC(=O)c1cc2c(s1)CCCC2)NCc1ccccc1Cl | -6 | 2.8 | -9 | -1 | 1 | 6
Cc1n[nH]c(=S)n1-c1cccc(Cl)c1 | -29 | -0.5 | ? | -2 | 2 | 8
COc1cc(OC)cc(C(=O)NC(C(=O)OCn2nnc3ccccc3c2=O)C(C)C)c1 (stereo not drawn) | -14 | 2.8 | 13 | -1 | -1 | -1
CC(=O)Nc1ccc(NC(=O)CCn2c(=O)oc3ccccc32)cc1 | -12 | -1.4 | -4 | -9 | 19 | 0
COc1ccc(-c2csc(NC(=O)C3CSC4(C)CCC(=O)N34)n2)cc1OC (stereo not drawn) | -5 | 0.7 | ? | 14 | -11 | 4
COc1ccc(S(=O)(=O)N(C)c2ccc(C(=O)NCC3CCCO3)cc2)cc1OC (stereo not drawn) | -16 | -0.4 | -4 | -7 | -2 | -20
COCCn1c(C)cc(C(=O)CSc2cc(C)c3ccccc3n2)c1C | 3 | 0.9 | 10 | 1 | 17 | -23
O=c1/c(=C/c2ccco2)sc2n1CN(c1cccc(Br)c1)CN=2 | ? | -0.3 | 3 | 9 | -8 | -8
COc1ccc(OCCN2CCC(C(=O)NC(c3ccsc3)c3ccccc3C)CC2)cc1 (stereo not drawn) | -23 | 0.6 | / | -21 | -26 | -13
Cc1ccc(-c2n[nH]c(=S)n2C)cc1Cl | -1 | -0.1 | 7 | -11 | -12 | -5
CC(=O)Cn1cnc2c(cnn2-c2ccc(F)cc2)c1=O | -5 | -0.1 | / | -6 | 1 | 5
CCCCCCn1cc(CN2CC(N3CCN(CCO)CC3)CS2(=O)=O)nn1 (stereo not drawn) | / | -0.1 | / | / | 3 | 9
